Assay outcomes as filed in PubChem.
HNF4A DNA FP = change in binding of human HNF4A to DNA, primary screen, biochemical, fluorescence polarization, FITC-DNA | Hepatocyte nuclear factor 4-alpha (Homo sapiens), P41235 | 1 h | activity change, % at 10 µM | hit rate 0.3% among 360,000 | AID 1224865, 2016; in the data active = activity change above about 30%, passing the limit was not always enough;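 note: controls were the assay level and a saturating level of protein; the project sought stronger binding though the title names inhibitors; some compounds called inactive have numbers as strong as hits; positive values seem to mean higher polarization but the record does not say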
Target sequence (P41235 whole entry, looked up): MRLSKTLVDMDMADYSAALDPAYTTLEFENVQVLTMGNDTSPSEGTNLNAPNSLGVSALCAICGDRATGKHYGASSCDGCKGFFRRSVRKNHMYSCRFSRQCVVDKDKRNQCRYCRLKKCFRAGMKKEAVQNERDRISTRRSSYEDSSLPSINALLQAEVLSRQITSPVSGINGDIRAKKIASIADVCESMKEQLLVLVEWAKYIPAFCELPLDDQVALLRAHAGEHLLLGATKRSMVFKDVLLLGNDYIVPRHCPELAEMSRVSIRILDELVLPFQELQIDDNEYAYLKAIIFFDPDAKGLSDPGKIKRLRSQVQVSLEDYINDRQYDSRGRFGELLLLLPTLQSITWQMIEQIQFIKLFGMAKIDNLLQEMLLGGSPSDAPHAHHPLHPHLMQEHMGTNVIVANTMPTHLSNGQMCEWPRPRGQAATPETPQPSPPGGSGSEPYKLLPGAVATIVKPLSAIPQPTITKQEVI
FGF22 binding = binders of human FGF22 protein, primary screen, FGF22 synaptogenesis inhibitor project, biophysical, thermal shift, single point; calls only at 9.99 µM; recombinant FGF22 thermal shift, SYPRO orange fluorescence; percent of sucrose octasulfate shift, DMSO zero; hit rate 1.5% among 340,000; Fibroblast growth factor 22 (Homo sapiens), Q9HCT0; AID 651658, 2012;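 active = melting point raised past a set limit in the mean and every replicate; three in four hits are not shown here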
Target sequence (Q9HCT0 whole entry, looked up): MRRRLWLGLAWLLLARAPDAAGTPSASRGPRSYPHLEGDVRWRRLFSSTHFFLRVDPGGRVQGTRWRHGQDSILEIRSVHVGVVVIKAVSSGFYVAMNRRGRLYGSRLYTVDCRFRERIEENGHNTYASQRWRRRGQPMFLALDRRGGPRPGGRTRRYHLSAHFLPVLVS
* = called active by the depositor; i = inactive; + = active, no number. The list is partial. The share of hits here may be higher or lower than overall.

Order of values: HNF4A DNA FP | FGF22 binding
O=C(Nc1cccc(C(F)(F)F)c1)c1ccc2sc([C@@H]3O[C@H](CO)[C@H](O)[C@H](O)[C@H]3O)nc2c1
  4.2 | i
Cc1ccc(N2CCN(C(=O)c3[nH]c(C(F)(F)F)nc3-c3ccccc3)CC2)cc1
  -1.0 | i
CC(=O)OC1CC2C(C)(C)C(=O)C=CC2(C)C2CCC3(C)C(c4ccoc4)OC(=O)C4OC43C12C (stereo not drawn)
  2.6 | i
Cc1ccccc1Oc1ccc2c(c1)[C@@H]1C[C@H](N(C)C(=S)Nc3ccc(F)cc3)[C@H]([C@H](C)O)C(=O)N1CC2
  -2.5 | i
Cc1ccc(S(=O)(=O)N2C[C@H]3[C@H]4C(=O)N(C)C(=O)[C@H]4CC(=O)[C@H]3[C@@H]2c2ccccc2F)cc1
  -3.2 | i
COCCN1C[C@@H](CO)O[C@@H](n2cnc3c(NCc4ccncc4)ncnc32)C1
  1.1 | i
CC(=O)Nc1cncc(-c2ccccc2CO)n1
  2.2 | i
Nc1ncnc2c1ncn2[C@@H]1O[C@H](C(=O)N[C@@H](CO)c2ccccc2)[C@@H](O)[C@H]1O
  1.9 | i
CC(=O)N1CCC(C(=O)N2c3ccccc3N=C(c3ccc(C(F)(F)F)cc3)C2C(=O)NC2CCCC2)CC1 (stereo not drawn)
  -2.4 | i
Cc1cccc(N(C)c2cc(-c3ccc(F)cc3)nc3ccnn23)c1
  -2.8 | i
C[C@H](O)[C@@H]1CN2CCc3c([nH]c4ccc(-c5ccc6c(c5)OCO6)cc34)[C@@H]2C[C@@H]1N(C)C(=O)Nc1ccc(F)cc1
  4.2 | i
CCCC(=O)N1CCC1(C)C(=O)Nc1ccc2nc(C)ccc2c1 (stereo not drawn)
  0.9 | i
OC[C@@H]1CN(Cc2ccc(F)cc2)C[C@H](n2cnc3c(N4CCN(c5ccccc5)CC4)ncnc32)O1
  -1.6 | i
CCOC(=O)[C@]12CCCC=C1N(CCc1ccc(OC)c(OC)c1)C(=O)[C@H](CC(=O)N1CCCCC1)C2
  -0.6 | i
Cc1ccc(C(=O)N2CCCC2(C)C(=O)NCC(C)C)cc1F (stereo not drawn)
  3.3 | i
CCN(CC)CCSC(=O)C(c1ccccc1)c1ccccc1
  -0.2 | i
COCCNC(=O)C1CCCN(Cc2cccc(C#N)c2)CC1 (stereo not drawn)
  -0.9 | i
CC(=O)Nc1ccc(SCC(=O)NC(=O)c2ccc(Cl)cc2)cc1
  2.9 | i
COc1ccc(CN(C)C(=O)c2cc(-c3ccccc3)nc3ccc(C)cc23)c(OC)c1
  -8.6 | i
COc1ccccc1CNc1nc(Nc2ccc(C)cc2C)c2sccc2n1
  -1.0 | i
COc1ccc([C@H]2N[C@]3(CCCN(Cc4ccc(C)cc4)C3=O)[C@H]3C(=O)N(Cc4ccccc4)C(=O)[C@@H]23)cc1
  -2.8 | i
CCN1C(=O)[C@H]2[C@@H](c3ccc(C)cc3)N[C@]3(CCCN(Cc4ccc(OC)cc4)C3=O)[C@H]2C1=O
  -1.8 | i
CCCCCNC(=O)C(C1CC1)n1c(=O)c(-c2ccccc2)nc2ccccc21 (stereo not drawn)
  0.1 | i
O=C(C1CC=CCC1)N1CCCCCC1 (stereo not drawn)
  -5.2 | i
Cc1cc2c(c(=O)o1)C1(C)CC(C)(O2)c2c(cc(C)oc2=O)O1
  5.5 | i
COc1ccc(CCC(=O)N2c3ccccc3N=C(c3ccc4c(c3)OCO4)C2C(=O)Nc2ccc(OC)cc2)cc1 (stereo not drawn)
  18 | i
COc1cc(/C=C/CNC[C@H]2O[C@@H](n3cnc4c(=O)[nH]c(N)nc43)[C@H](O)[C@@H]2O)ccc1O
  2.3 | i
CC1(C(=O)NCc2ccccc2)CN(S(C)(=O)=O)CC(=O)N1CC(F)(F)F (stereo not drawn)
  2.1 | i
COCCCNC(=O)C[C@@H]1C[C@@]2(C(=O)OC)CC(C)(C)CC=C2N(Cc2ccc3c(c2)OCO3)C1=O
  -0.5 | i
CSc1nc(SCc2ccccc2)[nH]c(=O)n1
  -6.5 | i

Reformatted in markdown: part of the list above
| SMILES | HNF4A DNA FP | FGF22 binding |
| --- | --- | --- |
| Cc1cccc(N(C)c2cc(-c3ccc(F)cc3)nc3ccnn23)c1 | -2.8 | i |
| CSc1nc(SCc2ccccc2)[nH]c(=O)n1 | -6.5 | i |
| O=C(C1CC=CCC1)N1CCCCCC1 (stereo not drawn) | -5.2 | i |
| O=C(Nc1cccc(C(F)(F)F)c1)c1ccc2sc([C@@H]3O[C@H](CO)[C@H](O)[C@H](O)[C@H]3O)nc2c1 | 4.2 | i |

Next compounds
Order of values: HNF4A DNA FP | FGF22 binding
CCOC(=O)[C@]12CCC=C1N(Cc1cccc3ccccc13)C(=O)[C@H](CC(=O)N1CCCCC1)C2
  0.7 | i
CCOc1ccc2nc(S(=O)(=O)NC(=O)C3(C)CCN3C(=O)c3cc(C)n(C)n3)sc2c1 (stereo not drawn)
  1.9 | i
CCc1nc2c(OCCC3CCCCC3)cccn2c1N(C)C(=O)c1ccncc1
  -1.8 | i
Cc1ccc(Cc2c(-c3ccc(Cl)cc3)nc3c(C)cc(Br)cn23)cc1
  4.5 | i
CC(CC(=O)c1ccccc1)=NCC(O)CN=C(C)CC(=O)c1ccccc1 (stereo not drawn)
  2.2 | i
NC(COCc1ccccc1)c1csc(Nc2cc(Oc3ccccc3)ncn2)n1 (stereo not drawn)
  -0.1 | i
Nc1ncnc2c1ncn2[C@@H]1O[C@H](C(=O)NCCCN2CCCC2=O)[C@@H](O)[C@H]1O
  -2.7 | i
Cc1cccc(NC(=O)C(=O)NCC2CCCN2S(=O)(=O)c2cccs2)c1 (stereo not drawn)
  4.9 | i
Cn1c(=O)c2cc(NC(=O)CCc3ccccc3)ccc2n1-c1ccccc1F
  0.0 | i
CCOC(=O)N1CCN(C(=O)C[C@@H]2C[C@@]3(C(=O)OC)CC(C)(C)CC=C3N(Cc3ccccc3)C2=O)CC1
  -1.8 | i
CC1=C(C(=O)N2CCCCCC2)CC(CC(=O)NCCc2ccccn2)C(=O)N1CCCN1CCCC1=O (stereo not drawn)
  0.6 | i
OCC1OC(c2ccc(O)cc2O)C(O)C1O (stereo not drawn)
  -2.2 | i
CC(=O)NCCNc1nc2cc(-c3ccc4c(ccn4C)c3)sc2c(=O)n1C
  -0.1 | i
CCOC(=O)[C@]12CCCC=C1N(Cc1cccc3ccccc13)C(=O)[C@H](CC(=O)NCC1CCCCC1)C2
  0.4 | i
Cc1cccc(C)c1NC(=O)C(C1CC1)n1c(-c2ccc(-c3ccccc3)cc2)nc2ccccc21 (stereo not drawn)
  -2.8 | i
Cc1cc2c(cc1C)-c1nnnn1C(N1CCCC1)C(=O)N2 (stereo not drawn)
  -5.1 | i
Cc1cc(C(=O)COC(=O)Cc2c(F)cccc2Cl)c(C)n1C
  -4.3 | i
CCCCNC(=O)C1c2ccccc2OCC(=O)N1CCc1ccccc1 (stereo not drawn)
  3.8 | i
Cc1sc2ccccc2c1CNC[C@H]1O[C@@H](n2ccc(N)nc2=O)[C@H](O)[C@@H]1O
  4.2 | i
Cc1ccn2c(NC3CCCCC3)c(-c3ccc(SC4CCCCC4)cc3)nc2c1
  54* | i
CCc1nc2c(OCc3ccccc3OC)cccn2c1N(C)C(=O)C(C)C
  0.3 | i
COc1ccc(CNC(=O)c2ccc(Cl)c(S(=O)(=O)N3CCCCCC3)c2)cc1
  4.1 | i
COc1ccccc1Cc1c(-c2ccc(F)cc2)nc2ccc(Cl)cn12
  8.6 | i
C=CCn1nc(C(=O)Nc2ccc(OC)cc2)cc1-c1sc(NC(=O)c2ccccc2)nc1C
  3.6 | i
O=C(Nc1ccccc1SC(=O)c1ccccc1)c1ccccc1
  1.4 | i
Nn1cnc2c(ncn2C2OC(CO)C(O)C2O)c1=O (stereo not drawn)
  -5.5 | i
Cc1ccc(C(=O)NCCN2CCC(n3c(=O)[nH]c4ccccc43)CC2)cc1C
  -8.5 | i
CCCC(C)(C)C(=O)N1CCC1(C)C(=O)Nc1cccc(OC)c1 (stereo not drawn)
  -4.3 | i
COc1cccc(NC(=O)C2(C)CCN2Cc2ccc(OC)c3ccccc23)c1 (stereo not drawn)
  4.7 | i
CC(C)CC1C(=O)N(Cc2cn(Cc3ccco3)nn2)CCS(=O)(=O)N1Cc1ccc(-c2ccc(Cl)cc2)cc1 (stereo not drawn)
  5.0 | i
CCC(C)(O)c1cnc(CC(C)C)c(=O)n1O (stereo not drawn)
  6.8 | i
Cc1ccc(S(=O)(=O)N2C3CCCCC3O[C@H]2CC(=O)c2cccs2)cc1 (stereo partly drawn)
  -2.5 | i
COc1ccc(CCN2C(=O)COc3ccccc3C2C(=O)NCc2ccccc2)cc1OC (stereo not drawn)
  1.9 | i
C=CCCC(=O)N1C[C@H]2CON(C)[C@H]2C[C@H]1c1cccc(Oc2ccccc2)c1
  -0.6 | i
CC(C)(C(=O)N1CCC1(C)C(=O)NS(=O)(=O)c1cccc(F)c1)c1ccccc1 (stereo not drawn)
  -1.6 | i
COCCNC(=O)C1CCCN(C(=O)c2cc(C(C)(C)C)nn2C)CC1 (stereo not drawn)
  2.0 | i
Cc1ccccc1-c1cc2nc(Oc3cccc(F)c3)n(C)c(=O)c2s1
  1.8 | i
Cc1cccc(NC(=O)c2sc3nc(C)nc(N4CCOCC4)c3c2C)c1
  -1.5 | i
CC(C)CN1CCC(C(=O)NC(c2ccc(F)cc2)c2ccc3ccccc3n2)CC1 (stereo not drawn)
  3.6 | i
OCCCNc1ncnc2c1ncn2[C@H]1CN(Cc2ccncc2)C[C@@H](CO)O1
  -0.2 | i
O=C1NC(=S)SC1=Cc1ccccc1C(=O)O
  5.8 | +
Cc1cc(Br)cn2c(Cc3ccccc3)c(-c3ccco3)nc12
  0.1 | i
CCN1C(c2ccc(F)cc2)=CS/C1=C(/C#N)c1nnc2n1-c1ccccc1SC2
  -2.4 | i
CCC(C(=O)NC(C)(C)C)n1c(-c2cccc(NC(C)=O)c2)nc2ccccc21 (stereo not drawn)
  -2.8 | i
CCOC(=O)C1CCCN(C(=O)/C=C/c2ccccc2)CC1 (stereo not drawn)
  0.5 | i
CCCC(=O)N1CCC1(C)C(=O)NS(=O)(=O)c1cccs1 (stereo not drawn)
  -4.3 | i
NS(=O)(=O)c1ccc(N2C(=O)CCCC2=O)cc1
  -2.0 | i
O=S1(=O)CC(O)C(O)CS1 (stereo not drawn)
  4.1 | i
CN1CCN(C(=O)C(=O)c2cn(CC(=O)N3CCOCC3)c3ccccc23)CC1
  1.0 | i
C=CCNC(=S)N1CCC2CC1c1c(Cl)cccc12 (stereo not drawn)
  1.2 | i
O=C1CCSC2=C1SCc1sccc12
  -1.2 | i
CN1OC[C@@H]2CN(C(=O)C(C)(C)C)[C@H](c3cccc(Oc4ccccc4)c3)C[C@@H]21
  -0.1 | i
CC(C)c1ccc(CC(=O)N2CCC2(C)C(=O)NS(=O)(=O)c2cccc(C#N)c2)cc1 (stereo not drawn)
  0.3 | i
CN(c1ccccc1)S(=O)(=O)c1ccc(C(=O)N2CCN(c3ccccc3)CC2)cc1
  1.4 | i
O=C(O)c1ccc(CN2C[C@@H](CO)O[C@@H](n3cnc4c(Nc5ccccc5)ncnc43)C2)cc1
  0.4 | i
CCCCN1C(=O)C(CC(=O)NCc2cccc3ccccc23)CC(C(=O)N2CCCCCC2)=C1C (stereo not drawn)
  -1.4 | i
Cc1ccc(NS(=O)(=O)c2ccc(C)c(NC(=O)c3ccc(S(=O)(=O)N4CCCCCC4)cc3)c2)c(C)c1
  -0.6 | i
Cc1ccc(Cc2c(C3CCCCC3)nc3ccc(C)cn23)cc1
  3.0 | i
CN(CC(=O)Nc1ccc(F)c(F)c1F)C(=O)C1(c2ccccc2)CC1
  1.3 | i
COc1cccc(NC(=O)C2(C)CCN2Cc2ccc(-c3ccccc3)o2)c1 (stereo not drawn)
  1.1 | i

Some of the entries above, reformatted.
Molecule,HNF4A DNA FP,FGF22 binding
CCOC(=O)N1CCN(C(=O)C[C@@H]2C[C@@]3(C(=O)OC)CC(C)(C)CC=C3N(Cc3ccccc3)C2=O)CC1,-1.8,i
CC1=C(C(=O)N2CCCCCC2)CC(CC(=O)NCCc2ccccn2)C(=O)N1CCCN1CCCC1=O (stereo not drawn),0.6,i

(continued)
Order of values: HNF4A DNA FP | FGF22 binding
COc1ccc(S(=O)(=O)NC(=O)C2(C)CCN2C(=O)Cc2cc(C)cc(C)c2)cc1 (stereo not drawn)
  -0.6 | i
O=C(Nc1cccc(C(=O)N2CCOCC2)c1)C1CCCCC1
  -1.6 | i
C[C@]1(CC/C(=C/CO)CO)[C@H](C=O)CC[C@@]23COC(=O)C2=CCC[C@@H]31
  -5.1 | i
CCOC(=O)[C@]12CCCC=C1N(Cc1cccc3ccccc13)C(=O)[C@H](CC(=O)N1CCCC1)C2
  -0.6 | i
O=S(=O)(c1cccnc1)N1CCCC(Nc2ccc(F)c(F)c2)C1 (stereo not drawn)
  2.9 | i
O=Nc1c(O)cc(O)c2ccccc12
  -5.2 | i
CCOC(=O)[C@]12CCCC=C1N(CCC1=CCCCC1)C(=O)[C@H](CC(=O)NCCc1ccccc1OC)C2
  -3.9 | i
Cc1cccc(S(=O)(=O)NC(=O)C2(C)CCN2C(=O)CC2CCCCC2)c1 (stereo not drawn)
  2.7 | i
CC1OC2CC(=O)OC2C2=C1C(=O)c1c(O)cccc1C2=O (stereo not drawn)
  -17 | i
CCOC(=O)N1CCN(C(=O)C[C@@H]2C[C@@]3(C(=O)OCC)CCCC=C3N(Cc3ccco3)C2=O)CC1
  -1.6 | i
CCCCC1Cc2[nH]c(=S)[nH]c(=O)c2C(c2ccc(Cl)cc2)O1 (stereo not drawn)
  -1.4 | i
